Screening data (PubChem BioAssay)
miR-21 reporter = qHTS Assay for Modulators of miRNAs and/orActivators of miR-21. HeLa miR-21 FLuc reporter, luciferase, 48 h. Potency, µM (series often up to 38.3 µM), for the others: at the highest dose reporter change, positive = more light. 340,000 tested, under 10 active; active = well fitted rising curve with a large enough effect; inconclusive = small, poorly fitted or top-dose-only effect; inactive = no such curve, though single readings can be large or run the other way;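 note: % of control where 0% means no effect; miR-21 action dims this reporter so a rising signal means less miR-21 action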
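HeLa miR-21-FLuc reporter line, endogenous miR-21; 2000 cells/well in DMEM/10% FBS; compound titration up to ~40uM final, 48 h, 37 degree Celsius; luciferase detection reagent, 15 min lysis, CCD luminescence.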
The depositor's hits bear a star; u = inconclusive.

structure | miR-21 reporter
CCCCOc1ccc(C2C(C(=O)Nc3ccccc3OC)=C(C)Nc3nnnn32)cc1OC (stereo not drawn) | -11.7%
Cc1ccc(C(=O)Nc2ccccc2C(=O)OCc2cc(=O)n3nc(C(C)C)sc3n2)cc1 | -0.8%
Cc1cc2c(cc1S(=O)(=O)N(CCO)Cc1ccccc1)OCC(=O)N2 | -3.0%
CCc1cccc(C)c1NC(=O)C(CC)Sc1nc2ccncc2[nH]1 (stereo not drawn) | 8.3%
COc1ccc(C2CC(=O)c3cc(-c4nc(-c5ccc(Cl)cc5)cs4)c(=O)[nH]c3C2)cc1 (stereo not drawn) | -3.4%
COc1cc(OC)c(NS(=O)(=O)c2cc3c(cc2C)N(C(C)=O)CCO3)cc1Cl | -11.3%
CCCCN(CC)CCCNC(=O)c1ccc2c(c1)N(Cc1ccc(C)cc1)C(=O)c1ccccc1S2 | u
COc1ccc(NC(=O)N2CCc3c([nH]c4ccc(OC)cc34)C2c2ccc(OC)cc2)cc1 (stereo not drawn) | 16.7%
CCc1ccccc1NC(=O)Nc1cc(C(=O)NCc2ccccc2OC)ccc1N1CCCC1 | -2.2%
Cc1ccc(-n2c(=O)c3sc4ccccc4c3n(C)c2=O)cc1F | -1.6%
O=C(CCCn1c(=O)c2cccn2c2cccnc21)NCc1ccccc1Br | 0.8%
COCCCNc1nc(NCc2ccc(C)cc2)c2cnn(C)c2n1 | -0.4%
CCc1ccc(OCC(=O)N(Cc2ccc(C)o2)C2CCS(=O)(=O)C2)cc1 (stereo not drawn) | -1.0%
O=C(NC1CCCCC1)c1ccc(CSc2nc3cccnc3n2Cc2ccc(F)cc2)cc1 | -0.2%
CCn1c(SCC(=O)Nc2ccccc2)nc2c([nH]c3ccccc32)c1=O | -22.1%
Cc1c(CCNC(=O)C(C)(C)C)sc2nc(-c3ccc(F)cc3)nn12 | 1.0%
CC1=C(C(=O)OC2CCCCCC2)C(c2ccc(Cl)cc2Cl)CC(=O)N1 (stereo not drawn) | -0.5%
COc1ccccc1OCC(=O)NCCS(=O)(=O)N1CCN(c2ccccc2OC)CC1 | -1.7%
CC(C)NC(=O)CCn1c(SCc2c(F)cccc2Cl)nc2c(sc3ccccc32)c1=O | 1.2%
Cc1ccc(-n2cc(-c3ccccc3)c3c(NC4CCCC4)ncnc32)cc1 | -0.5%
CCn1cc2nc(SCc3cc(C)ccc3C)n(CCc3ccccc3)c(=O)c2n1 | 15.9%
COc1ccc(NC(=O)C2CCCN(S(=O)(=O)c3cccc4nonc34)C2)cc1Cl (stereo not drawn) | -2.1%
COc1ccccc1NC(=O)C1CCCN(c2ncnc3onc(-c4ccc(F)cc4)c23)C1 (stereo not drawn) | -4.3%
COc1ccc(NC(=O)Cn2cnc3c(nc4n3CCCCC4)c2=O)cc1Cl | 2.8%

Looked up above:
Reading of O=C(NC1CCCCC1)c1ccc(CSc2nc3cccnc3n2Cc2ccc(F)cc2)cc1 in miR-21 reporter: -0.2%
Reading of CCn1cc2nc(SCc3cc(C)ccc3C)n(CCc3ccccc3)c(=O)c2n1 in miR-21 reporter: 15.9%

For reference, some entries already given:
structure | miR-21 reporter
CCc1ccc(OCC(=O)N(Cc2ccc(C)o2)C2CCS(=O)(=O)C2)cc1 (stereo not drawn) | -1.0%
O=C(NC1CCCCC1)c1ccc(CSc2nc3cccnc3n2Cc2ccc(F)cc2)cc1 | -0.2%
CCn1c(SCC(=O)Nc2ccccc2)nc2c([nH]c3ccccc32)c1=O | -22.1%

Three entries from above, ordered by heavy-atom count, falling.
structure | miR-21 reporter
CCn1cc2nc(SCc3cc(C)ccc3C)n(CCc3ccccc3)c(=O)c2n1 | 15.9%
CCn1c(SCC(=O)Nc2ccccc2)nc2c([nH]c3ccccc32)c1=O | -22.1%
CC1=C(C(=O)OC2CCCCCC2)C(c2ccc(Cl)cc2Cl)CC(=O)N1 (stereo not drawn) | -0.5%

(next part)
structure | miR-21 reporter
Cc1ccc(S(=O)(=O)Nc2ccc3[nH]c(=O)sc3c2)cc1C | 4.2%
O=C(Nc1cc(-c2nc3cc(Cl)ccc3o2)ccc1Cl)c1ccco1 | -54.1%
CSc1cccc(NC(=O)CN2CCN(Cc3ccccc3C)S2(=O)=O)c1 | 14.2%
COc1cc(OC)c(NC(=O)c2cnn(-c3cccc(Cl)c3C)c2C2CCN(C(=O)OC(C)(C)C)CC2)cc1Cl | 2.1%
CC(C)NC(=O)Cn1c(=O)nc(-c2ccccc2)c2ccccc21 | -0.1%
COc1ccc2c(c1)c1c(c(=O)n(-c3ccccc3)c(=O)n1CC(=O)Nc1ccc(F)cc1)n2C | -0.6%
Cc1ccc(NC(=O)c2ccc(NC(=O)N3CCSc4ncccc43)cc2)c(Cl)c1 | 15.3%
Cc1cccc(N(C)S(=O)(=O)c2nnc(NC(=O)C3CCCCC3)s2)c1 | -9.5%
CCc1ccc(-n2c(-c3ccccc3)c(C)n3c4c(=O)n(C)c(=O)n(C)c4nc23)cc1 | 3.0%
CCN(C(=O)CSc1nnc(-c2ccc(Cl)cc2)o1)c1ccccc1 | 1.5%
COc1cccc(N2CCN(C(=O)c3cc4c(=O)n(Cc5cccs5)ccc4nc3C)CC2)c1 | -2.0%
COc1cc(OC)c(NC(=O)Nc2ccc3c(c2)N(C)C(=O)c2ccccc2S3)cc1Cl | 23.0%
COc1ccc2c(c1)Cc1sc(NC(=O)c3cccc(Cl)c3)nc1-2 | 18.6%
CCn1c(=O)n(-c2ccc(C)c(F)c2)c(=O)c2sc3ccccc3c21 | -9.9%
COc1ccc(NC(=O)CSc2nc(-c3ccccc3)[nH]c2-c2ccccc2)cc1OC | 23.6%
CCc1cccc(NC(=O)Cn2c(=O)n(CC3CCC(C(=O)NCCc4ccccc4)CC3)c(=O)c3ccccc32)c1 (stereo not drawn) | -10.5%
COc1ccc(S(=O)(=O)c2nnn(-c3ccccc3F)c2C)cc1 | 11.7%
Cc1cccc(N(C)C(=O)C2CCN(S(=O)(=O)c3cccc4nonc34)CC2)c1 | 8.3%
Cc1ccccc1CN1CCN(CC(=O)NCc2ccccc2Cl)C1=O | -12.1%
CCOC(=O)c1[nH]c(C)c(CCC(=O)Nc2cc(C)ccc2OC)c1C | 1.6%
COc1ccc(-c2cc(C(=O)Nc3c(C)nn(Cc4ccc(C)cc4)c3C)no2)cc1OC | 10.2%
CC(CNC(=O)c1ccc(CSc2nc3ccncc3n2Cc2ccc(F)cc2)cc1)c1ccccc1 (stereo not drawn) | 27.4%
Cc1ccc(Cn2c(C(=O)O)c(CNC3CCCC3)c3ccc(C)cc32)cc1 | -3.4%
Cc1ccc(CCNC(=O)c2sc3ncccc3c2-n2cccc2)cc1 | -0.4%

In another format: results already given
miR-21 reporter	Compound
8.3%	Cc1cccc(N(C)C(=O)C2CCN(S(=O)(=O)c3cccc4nonc34)CC2)c1
-12.1%	Cc1ccccc1CN1CCN(CC(=O)NCc2ccccc2Cl)C1=O
1.6%	CCOC(=O)c1[nH]c(C)c(CCC(=O)Nc2cc(C)ccc2OC)c1C
10.2%	COc1ccc(-c2cc(C(=O)Nc3c(C)nn(Cc4ccc(C)cc4)c3C)no2)cc1OC

Further entries follow.
structure | miR-21 reporter
O=C(NCc1ccc(F)cc1)C(=O)NCC(c1cccs1)S(=O)(=O)c1cccs1 (stereo not drawn) | 1.5%
CCc1cccc(NC(=O)Cn2nc(-c3cc(C)ccc3C)ccc2=O)c1 | 14.1%
Cc1cccc(CCNC(=O)c2ccc3c(c2)nc2n3CCOC2)c1 | -60.3%
COc1ccc(Cn2c(CCC(=O)Nc3ccc(OC)c(Cl)c3)nc3cccnc32)cc1 | -18.2%
COC(=O)c1ccc(OCC2c3cc(OC)c(OC)cc3CCN2C(=O)Cc2ccc(OC)c(OC)c2)cc1 (stereo not drawn) | -2.4%
CCN1C(=O)c2ccccc2Sc2ccc(NC(=O)Nc3ccccc3OC)cc21 | u
Cc1ccc(NC(=O)Cn2cc(S(=O)(=O)NC(C)C)c(S(=O)(=O)NC(C)C)c2)cc1Cl | 22.1%
Cn1cc(C(=O)NCCc2ccccc2)c(=O)c2cc(S(=O)(=O)N3CCCCCC3)ccc21 | 0.1%
CCc1ccccc1N(C)C(=O)Cn1cnc2sc(C)c(S(=O)(=O)N3CCC(C)CC3)c2c1=O | 0.5%
CCCC(=O)OC1=CN(Cc2ccccc2)S(=O)(=O)c2ccccc21 | 22.3%
Cc1ccc(CNC(=O)c2sc3nc(-c4ccc(F)cc4)ccc3c2N)cc1 | 0.2%
CCOc1ccc(N2C(=O)N(Cc3ccc(C)cc3C)c3ccccc3S2(=O)=O)cc1 | 0.9%
Cn1cnc(S(=O)(=O)N2CCCC(C(=O)NCc3ccc(Cl)cc3)C2)c1 (stereo not drawn) | 2.2%
Cc1cc(=O)[nH]c(SCC(=O)N2CCN(c3ccccc3)CC2)n1 | -0.6%
COc1ccc(OCCn2cc(C(=O)C3CCCCC3)c3ccccc32)cc1 | 5.2%
CCOC(=O)c1ccc(NC(=O)c2cccc3c(=O)c4c([nH]c23)CCCC4)cc1 | -1.0%
CCCn1cc(S(=O)(=O)c2ccccc2)c(=O)c2cc(F)c(N3CCCCCC3)cc21 | -0.1%
COc1ccc(NC(=O)CC2C(=O)N(c3cccc(OC)c3)C(=O)N2Cc2ccc3c(c2)OCO3)cc1 (stereo not drawn) | 4.8%
CCc1nn(CC(=O)NC(C)C)c(=O)c2cc3cc(F)ccc3n12 | 2.2%
COc1ccccc1CNC(=O)Cn1c(=O)ccc2cc(S(=O)(=O)N3CCC(C)CC3)ccc21 | 15.2%
COc1ccccc1CNc1nc(-c2ccco2)nn1S(=O)(=O)c1ccc(Cl)cc1 | -38.9%
Cc1nn(-c2ccc(N3CCCC3)nn2)c(C)c1CCC(=O)N1CCN(c2ccccc2F)CC1 | -3.9%
Cc1ccc(/C=C/c2onc(C)c2S(=O)(=O)N2CCC(C(=O)NCc3ccco3)CC2)cc1 | -0.3%
O=[N+]([O-])c1ccc(C23CC4CC(CC(O)(C4)C2)C3)cc1 | -37.5%

(next part)
SMILES	miR-21 reporter
CCOc1ccccc1CNC(=O)C1CCN(c2nc3ccccc3nc2C(F)(F)F)CC1	-2.0%
Cc1ccc(NC(=O)N2CC3CCCN3c3ccccc32)c(C)c1 (stereo not drawn)	-8.0%
Cc1ccc(N2CCN(C(=O)c3cn(C)c4ccc(S(=O)(=O)N(C)C)cc4c3=O)CC2C)cc1 (stereo not drawn)	4.1%
COC(=O)c1ccccc1NC(=O)c1cc(=O)c2ccc(C)c(C)c2o1	-9.2%
CCC1=Nc2cc(C(=O)NC3CCCC3)ccc2Sc2ccc(Cl)cc21	24.7%
CCOC(=O)c1cc(-c2ccc(OC)c(S(=O)(=O)NC3CCCCC3)c2)on1	-5.6%
CC(C)C[C@H](N)c1nnc(SCc2ccc(Cl)cc2Cl)o1	13.0%
CCc1cccc(CC)c1-n1nnc2c(sc3nc(C)cc(C)c32)c1=O	-5.6%
CCOC(=O)c1c(NC(=O)c2cc(C)on2)sc(C)c1C	-0.7%
CCOc1ccc(CN2C(=O)c3ccccc3Sc3ccc(C(=O)OC)cc32)cc1	-0.1%
Cc1cc(S(=O)(=O)NCC(c2ccco2)S(=O)(=O)c2cccs2)ccc1F (stereo not drawn)	10.5%
O=C(NCc1ccccc1Cl)c1ccc(Nc2nc3ccccc3n3nnnc23)cc1	-12.3%
CC(C)CN1CCc2nc(N3CCN(C)CC3)ncc2C1	-7.5%
CCn1ccc2cc(S(=O)(=O)N3CCCN(C(=O)Nc4ccc(C)c(F)c4)CC3)ccc21	13.1%
O=C(c1ccco1)c1cn(CCOc2ccc(Cl)cc2)c2ccccc12	-1.1%
CCOC(=O)C1CCN(C(=O)CSc2n[nH]c(-c3ccccc3)n2)CC1	-2.0%
CCOC(=O)c1cccc(NC(=O)NCc2cccn2Cc2ccccc2)c1	8.4%
CCOC(=O)Cc1ccc(NC(=O)Nc2ccccc2OCc2cc(=O)n3ccccc3n2)cc1	-11.0%
CC(C)N(C(=O)Cn1cc(S(=O)(=O)Cc2ccc(Cl)cc2)c2ccccc21)C(C)C	-0.5%
CCc1ccccc1NC(=O)Cn1c(=O)n(-c2cccc(C)c2)c(=O)c2c1c1cc(OC)ccc1n2C	-1.7%
CCN(CC)CCCNC(=O)CSc1nc2nc(C)c(Cc3c(F)cccc3Cl)c(C)n2n1	-12.6%
CCCOc1ccc(CN(C(=O)Cc2coc3ccc(CC)cc23)C2CCS(=O)(=O)C2)cc1 (stereo not drawn)	16.5%
COc1cccc(C(=O)Nc2nc3c(s2)CCCC3)c1	u
COc1ccc(C(=O)Nc2nc(-c3nnn(-c4ccc(F)cc4F)c3C)ns2)cc1	1.3%
CCCCNC(=O)c1cc(-c2ccc(OC)cc2)nc2n[nH]c(-c3cccc([N+](=O)[O-])c3)c12	6.5%
Cc1ccc(NC(=O)C2CCCN(S(=O)(=O)c3ccc(F)cc3)C2)cc1 (stereo not drawn)	22.2%
COCc1cc(C)nc2c1C(=O)NC(c1ccc(Br)cc1)N2Cc1ccccc1 (stereo not drawn)	-2.8%
COc1ccccc1NC(=O)Cn1c(=O)oc2cc(S(=O)(=O)NCc3ccccc3)ccc21	6.0%
O=C(c1ccc(F)cc1)N1c2ncnn2C2(CCCCC2)[C@@H]2CCCC[C@@H]21	23.9%
COc1ccccc1CNC(=O)CCc1c(C)c2ccc(OC)c(C)c2oc1=O	-14.0%
Cc1cc(N2CCCCC2)nc2ccc(NC(=O)c3ccc(F)cc3)cc12	11.7%
CCOc1ccc(NC(=O)c2cc3c(C)nn(-c4ccccc4)c3s2)cc1	-4.6%
CCn1c(CN2CCOCC2)nc2cc(NC(=O)c3ccc([N+](=O)[O-])cc3)ccc21	1.9%
CC1=C(C(=O)Nc2ccc(C)cc2C)C(c2ccccc2C)n2ncnc2N1 (stereo not drawn)	3.7%
CCOc1ccccc1NC(=O)CSc1cn(CC(=O)N2CCCCCC2)c2ccccc12	15.0%
CC1=C(C(=O)Nc2ccccc2C)C(c2ccncc2)n2nc(SCc3ccccc3)nc2N1 (stereo not drawn)	9.4%
O=C1CN(C(=O)c2ccc(S(=O)(=O)N3CCCC3)cc2)C(c2ccc(F)cc2)c2cc(Br)ccc2N1 (stereo not drawn)	24.8%

Only part of the results is shown (hit frequency here may not be typical).
